# Rango dissoc inh = prevents RanGTP from dissociating the Rango-importin beta complex | O95149+P62826 | Biochemical FRET Rango-importin beta, RanGTP-induced dissociation | Potency, µM (doses to about 46.1 µM), for inactives: top-dose activity change, negative = inhibition | hit rate 0.071% among 340,000; active means falling FRET ratio curve, often poorly fitted, with flat reads before Ran was added; inconclusive means other falling curves, or compound fluorescence or quenching; inactive means flat or rising ratio curve;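 note: potency is the fitted concentration of half-maximal effect; % of control where 0% means no effect; nearly all actives have a fitted effect of over 45% in size; -100% = wells without RanGTP and RCC1; the record marks most hits as doubtful in a second field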
#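 Compounds sat 5 min at room temperature with 0.1 uM Rango biosensor plus 0.25 uM importin beta, then FRET pre-read. RanGTP-RCC1 (0.6 uM Ran, 2mM GTP, 0.2 uM RCC1) added for 45 min, and the CFP/YFP post-read measured blocked complex dissociation.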
# Rango complex inh = inhibitors of Rango-importin beta complex formation. Q14974. Rango CFP/YFP FRET sensor + importin beta, 45 min. Potency, µM (titrated, usually from 92.2 µM), without a hit: top-dose inhibition of complex formation. hit rate 0.031% among 340,000; active = rising FRET ratio curve, often small or poorly fitted; inconclusive = mostly compound fluorescence or quenching in the first reads; inactive = flat curves in all reads;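 note: potency is the fitted concentration of half-maximal effect; 0% = DMSO wells and 100% = buffer wells lacking importin beta; nearly all actives have a fitted effect of over 15% in size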
# Target sequence (Q14974 whole entry, looked up): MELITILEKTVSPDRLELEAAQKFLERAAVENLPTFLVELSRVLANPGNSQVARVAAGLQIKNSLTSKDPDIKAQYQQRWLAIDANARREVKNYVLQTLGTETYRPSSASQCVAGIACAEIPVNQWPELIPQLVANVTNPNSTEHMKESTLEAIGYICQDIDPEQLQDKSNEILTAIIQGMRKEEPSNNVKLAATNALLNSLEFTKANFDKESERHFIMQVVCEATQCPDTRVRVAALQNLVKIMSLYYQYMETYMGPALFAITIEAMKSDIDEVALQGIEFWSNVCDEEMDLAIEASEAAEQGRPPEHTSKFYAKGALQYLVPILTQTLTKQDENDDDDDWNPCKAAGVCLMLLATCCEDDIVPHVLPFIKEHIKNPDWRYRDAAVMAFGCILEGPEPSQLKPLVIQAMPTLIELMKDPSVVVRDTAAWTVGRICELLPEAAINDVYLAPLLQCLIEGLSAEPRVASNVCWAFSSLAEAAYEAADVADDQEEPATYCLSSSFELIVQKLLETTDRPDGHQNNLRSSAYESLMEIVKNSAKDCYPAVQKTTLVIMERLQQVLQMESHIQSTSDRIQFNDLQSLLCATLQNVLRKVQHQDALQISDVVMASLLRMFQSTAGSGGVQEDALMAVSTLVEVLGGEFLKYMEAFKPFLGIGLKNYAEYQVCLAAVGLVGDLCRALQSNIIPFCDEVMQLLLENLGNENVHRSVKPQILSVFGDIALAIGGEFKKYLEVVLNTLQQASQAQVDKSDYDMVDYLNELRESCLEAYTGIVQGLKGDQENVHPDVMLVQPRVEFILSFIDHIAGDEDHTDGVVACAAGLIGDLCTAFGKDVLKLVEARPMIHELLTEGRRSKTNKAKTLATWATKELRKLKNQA
#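 Inhibition scored from the CFP 486 nm/YFP 530 nm FRET ratio 45 min after adding 0.125 microM importin beta to 50 nM Rango biosensor preincubated 5 min with compound (room temperature, PBS with DTT, Tween-20, BSA). No-importin wells as positive control.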
# miR-21 FLuc = miR-21 reporter, rising signal; Potency, µM (highest dose often 38.3 µM), without a hit: at the top dose reporter change, positive = more light; HeLa miR-21 FLuc reporter, luciferase, 48 h; 340,000 tested, under 10 active; AID 2288; active = well fitted rising curve with a large enough effect; inconclusive = small, poorly fitted or top-dose-only effect; inactive = no such curve, though single readings can be large or run the other way;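 note: % of control where 0% means no effect; miR-21 action dims this reporter so a rising signal means less miR-21 action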
#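 HeLa cells endogenously expressing miR-21, stably carrying CMV-driven firefly luciferase with a downstream miR-21 binding site, 2000 cells/well. Titrations up to approximately 40 uM, 48 hours; luciferase luminescence read.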
# GLA inh pH 4.5 = inhibitors of human alpha-galactosidase A at pH 4.5 | P06280 | purified enzyme, 4-MU-alpha-Gal fluorescence, pH 4.5 | activity change, negative = inhibition, % at 105 µM | 230,000 tested, under 10 active; inconclusive = small, poorly fitted or top-dose-only inhibition, or a rising curve; inactive = flat fitted curve, though single readings scatter; no compound was filed as active;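 note: 0% = full activity with enzyme and -100% = basal without enzyme; dose as in the result columns while the protocol names 77 µM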
# Starred values were filed as active, the others as inactive; ? = inconclusive; / = no result given; [ ] = remark or other dose. Only part of the results is shown; count on the stated rates, not on these rows.
GLA inh pH 4.5,Rango complex inh,Rango dissoc inh,miR-21 FLuc,Molecule
-3[21.1 µM],1.4%,5%,-1%,COc1cc(C(=O)N/N=C/c2ccc(OC)c(CN3CCN(c4ccc(F)cc4)CC3)c2)ccc1O
-2,-0.7%,0%,2%,COC(=O)COc1ccc(S(=O)(=O)N2CCN(c3ccc(OC)cc3)CC2)cc1
-2,2.7%,2%,-16%,Cc1ccccc1C(=O)Nc1nnc(-c2ccncc2)o1
-2,-0.2%,1%,-17%,COc1cccc(N/C=C(\C#N)c2ccc(OCCCF)cc2)c1
-3,-2.3%,14%,-2%,O=C(CN1CCCC1)Nc1cc(C(F)(F)F)cc(C(F)(F)F)c1
0,-0.3%,-10%,-7%,CCC(=O)N1CCc2cc(S(=O)(=O)NC(C(=O)N3CCc4ccccc4C3)C(C)C)ccc21 (stereo not given)
-8,1.9%,8%,-3%,CN(C)CCCNC(NC(=O)/C=C/c1ccccc1)C(Cl)(Cl)Cl (stereo not given)
/,0.9%,-10%,7%,COc1ccc(CCNC(=O)[C@@H](NC(=O)N2CC(=O)Nc3ccccc32)C(C)C)cc1OC
-3,2.7%,-5%,-9%,COc1ccc(CCCc2n[nH]c(=S)o2)c(C)c1
/,-0.8%,0%,3%,Cc1cccc(NS(=O)(=O)c2ccc(C(=O)NCC3CCCO3)cc2)c1C (stereo not given)
-3,0.1%,24%,-4%,C=CCNC(=O)CN1CCC(O)(c2ccccc2)CC1
4,/,/,15%,O=c1c2c3nc4ccccc4nc3n(/N=C/c3cccs3)c2ncn1-c1ccccc1
/,3.7%,-11%,/,COc1ccccc1NC(=O)Nc1nc(CC(=O)N2CCN(c3ccccc3OC)CC2)cs1
4,9.5%,-1%,-4%,O=C(CNC(=O)c1ccncc1)N/N=C/c1cc(Br)ccc1O
/,-3.6%,3%,-3%,CCCCCCNCC(=O)N1CCC(Cc2ccccc2)CC1
/,-4.1%,1%,1%,O=C(CSc1nccn1Cc1ccc(F)cc1)Nc1ccc(F)cc1F
-1,-3.3%,-24%,-25%,CCC(=O)NCc1csc(-c2cccs2)n1
-1,3.4%,-2%,-1%,O=S(=O)(c1ccc(F)cc1)N1CCN(c2nc(-c3ccc(F)cc3)cs2)CC1
/,-1.1%,1%,4%,O=C(CC(=O)N/N=C\c1ccccc1[N+](=O)[O-])NCCc1ccccc1
-6,-0.8%,2%,-3%,COc1cc(S(=O)(=O)N2CCCCC2)ccc1NC(=O)/C=C/c1ccccc1
-1,-2.9%,11%,-2%,COc1ccc(-c2cc(C(F)(F)F)nc(SCC(=O)NCc3cccs3)n2)cc1
-4,-1.3%,-4%,3%,COc1ccc(Cn2nnnc2C(c2cccs2)N2CCN(c3ccccc3)CC2)cc1 (stereo not given)
3,0.9%,15%,0%,Cc1ccc(C)c(S(=O)(=O)Nc2ccccc2C(=O)Nc2ccccc2N2CCOCC2)c1
-16[21.1 µM],-6.8%,-5%,-14%,CCc1ccc(NC(=S)N(Cc2ccc(Cl)cc2)Cc2ccc(C(=O)O)cc2)cc1
-5,-1.7%,22%,24%,CCNC(=S)N=Nc1c(O)[nH]c2ccc(C(C)C)cc12
-1,4.1%,-7%,-21%,COc1ccccc1NC(=S)NNC(=O)c1cc(C)nn1C
-1,0.6%,-1%,-2%,CCOc1cc(N2CCOCC2)c(OCC)cc1NC(=O)COC(=O)[C@H](Cc1c[nH]c2ccccc12)NC(C)=O
5,-0.7%,1%,-30%,O=[N+]([O-])c1nn(-c2ccc(Cl)cc2)n(O)c1=NCc1ccncc1
7,-6.4%,-2%,-5%,COc1ccc2c(c1)-c1ccccc1S(=O)(=O)N2C
6,-0.3%,-2%,-2%,COC(=O)C(N)Cc1ccc(O)c(O)c1 (stereo not given)
/,1.4%,3%,8%,O=C(NCc1ccco1)c1cc(Cl)nc(Cl)c1
-5,1.6%,-8%,-39%,COC(=O)c1cccc(NC(=O)CCc2ccccc2)c1
/,3.7%,0%,-1%,O=C(CSc1nncc2ccccc12)Nc1ccccc1
/,0.1%,-16%,-1%,COc1cc(OC)cc(C(=O)N2CCN(C(=O)c3cccnc3)CC2)c1
4,1.4%,-9%,-7%,COc1ccc([N+](=O)[O-])cc1NC(=O)CSc1nccc(C)n1
/,3.8%,1%,/,Oc1ccc2c(c1)c1ccccc1c1ncccc21
/,-0.8%,-5%,1%,COc1ccc(OC)c(S(=O)(=O)NC2CCCCNC2=O)c1 (stereo not given)
3,-1.2%,8%,-7%,Cc1cccn2c(NC(=O)c3cccs3)c(-c3ccccc3)nc12
/,3.1%,5%,-3%,O=C(O)CSCC(=O)Nc1ccccc1SCCS(=O)(=O)c1ccc(Cl)cc1
4,4.7%,20%,-25%,O=C(Cn1c(-c2cscn2)nc2ccccc21)Nc1cc(F)ccc1F
-10,-3.8%,?,-9%,O=C(CN1C(=O)S/C(=C\C=C\c2ccccc2)C1=O)Nc1ccc(C(=O)O)cc1
/,0.9%,1%,0%,COC(=O)C1CCN(C(=O)CC(NC(=O)C(F)(F)F)c2cccs2)CC1 (stereo not given)
9,0.5%,10%,3%,CNC(=O)COc1ccc(S(=O)(=O)Nc2ccc(OC)cc2)cc1
7,-6.0%,-6%,-2%,COC(=O)c1nn(-c2ccccc2)c(=O)cc1Sc1ccc(Cl)cc1
/,-1.0%,-4%,-16%,Cc1ccccc1CCNC(=O)C1CCC(=O)N(CCc2cccc(F)c2)C1 (stereo not given)
/,2.3%,0%,13%,O=C(O)c1cc(-c2ccc3ccccc3c2)nc2ccc(F)cc12
-11,1.1%,-1%,-10%,CC(NC(=O)Cn1cnnn1)C12CC3CC(CC(C3)C1)C2 (stereo not given)
/,-0.5%,8%,/,NC(=O)CCCn1c(C(=O)c2ccc(Cl)cc2)c2ccc(C(F)(F)F)cc2[n+]1[O-]
-3,-2.6%,14%,-43%,COc1ccc(CCNC(=O)c2cc(-c3cccs3)on2)cc1OC
9,1.2%,-2%,0%,CN1CCN(CCCCOc2ccc(F)cc2)CC1
-4,-3.9%,0%,0%,O=C(CSc1nnc2c(Cl)cc(Cl)cn12)NC1CCS(=O)(=O)C1 (stereo not given)
/,1.4%,1%,-4%,Cc1cc(C)cc(OCC(O)Cn2nc(C)cc2C)c1 (stereo not given)
/,5.0%,-9%,/,CC[C@]12c3[nH]c4cc(CCC(=O)N(C)C)ccc4c3CCN1C(=O)[C@@H](CC(=O)NCCCn1ccnc1)C[C@@H]2C(=O)N1CCN(C(=O)c2ccco2)CC1
-8,1.4%,0%,-2%,COc1ccc(CCNC(=O)c2ccc3c(SCC(=O)O)c4c(nc3c2)CCCC4)cc1OC
/,0.8%,-3%,-22%,O=C(CCn1c(=O)sc2ccccc21)NC1CCCCC1
-5,6.2%,6%,-1%,O=C(NCSc1ccncn1)c1ccccc1
1,-1.0%,-10%,-22%,Cc1cccc(NC(=O)NCCN2C(=O)C3C4C=CC(C4)C3C2=O)c1 (stereo not given)
7,/,/,-39%,CC1CCC(NC(=O)c2ccc(NC(=O)c3ccc(=O)[nH]c3)cc2)CC1 (stereo not given)
5,5.0%,17%,0%,CCN(CC)CCCN1C(=O)C(O)=C(C(=O)c2cc3ccccc3o2)C1c1ccccn1 (stereo not given)
/,-0.4%,-11%,/,Cc1cccc(/C=C/C(=O)c2ccc([N+](=O)[O-])o2)c1

# The listing continues:
GLA inh pH 4.5,Rango complex inh,Rango dissoc inh,miR-21 FLuc,Molecule
/,-0.7%,0%,-9%,CCOC(=O)c1ccc(NS(=O)(=O)c2c(C)[nH]c(C)c2C(=O)N2CCCCC2)cc1
2,?,-6%,-19%,Cc1ccccc1-c1nc2cc(N)ccc2o1
7,4.8%,-4%,0%,O=C(O)c1ccccc1/C=N/NC(=O)C1CCCCC1
/,0.5%,1%,/,O=C(CSc1nc2ccccc2c(=O)n1-c1ccc(F)cc1)NC1CC1
0,-1.5%,1%,1%,CSc1nc2nc(C)c(C/C=C/c3ccccc3)c(=O)n2[nH]1
/,-2.5%,-10%,-18%,O=C(Nc1ccc(Cl)cc1Cl)C1CCCO1 (stereo not given)
?,-3.3%,13%,/,CCCCCCCC/C=C\CCCCCCCC(=O)NCCO
-1,-1.9%,-6%,-65%,O=C(COc1ccc(F)cc1Br)NCc1ccccn1
7,?,?,-73%,COc1cccc(C(=O)/C=C/Nc2ccc(NC(C)=O)cc2)c1
/,0.8%,12%,/,CCCCn1c(N)c(N(CCOC)C(=O)c2ccc3c(c2)C(=O)N(c2ccccc2Cl)C3=O)c(=O)[nH]c1=O
/,5.5%,7%,1%,CC(C)c1ccc(C(C(=O)NC2CCCC2)N(C(=O)c2csnn2)C2CC2)cc1 (stereo not given)
12,0.5%,18%,-16%,CC(C)=CC(=O)Nc1ccc2c(c1)OCO2
6,0.0%,1%,-25%,COc1ccccc1N1CCN(/N=C/c2cc(OC)c(OC)c(OC)c2)CC1
13,-2.6%,5%,0%,COc1cc(-c2nc3ccccc3c(=O)n2N)cc(OC)c1OC
2,0.9%,-3%,-6%,COc1ccc(CCNc2cc(C)nc3c(-c4ccc(Cl)cc4)c(C)nn23)cc1OC
-3,2.9%,3%,-8%,N#CCCN1CCN(C(CNS(=O)(=O)c2ccc(Cl)cc2)c2ccccc2)CC1 (stereo not given)
2,0.4%,14%,-27%,Cc1cccc(OCCOCCSc2ncccn2)c1
/,-0.2%,7%,/,O=C(COC(=O)c1c[nH]c2ccccc12)Nc1cccc(F)c1
-1,8.0%,-1%,-3%,Cc1ccc(N2CC3=C(C2=O)C(c2ccccc2)NC(=O)N3C)cc1 (stereo not given)
/,2.4%,?,/,Cn1c(CNC(=O)c2ccco2)nnc1SCC(=O)Nc1ccccc1Cl

# Some of the entries above in another layout:
O=C(Nc1ccc(Cl)cc1Cl)C1CCCO1 (stereo not given)
  GLA inh pH 4.5 = / | Rango complex inh = -2.5% | Rango dissoc inh = -10% | miR-21 FLuc = -18%

CCCCCCCC/C=C\CCCCCCCC(=O)NCCO
  GLA inh pH 4.5 = ? | Rango complex inh = -3.3% | Rango dissoc inh = 13% | miR-21 FLuc = /

O=C(COc1ccc(F)cc1Br)NCc1ccccn1
  GLA inh pH 4.5 = -1 | Rango complex inh = -1.9% | Rango dissoc inh = -6% | miR-21 FLuc = -65%

COc1cccc(C(=O)/C=C/Nc2ccc(NC(C)=O)cc2)c1
  GLA inh pH 4.5 = 7 | Rango complex inh = ? | Rango dissoc inh = ? | miR-21 FLuc = -73%

# Next section:
GLA inh pH 4.5,Rango complex inh,Rango dissoc inh,miR-21 FLuc,Molecule
1,0.1%,2%,-12%,CC(C)CCNc1nnnc2c1sc1nc(N3CCOCC3)c3c(c12)CC(C)(C)SC3
-5,-1.1%,-8%,1%,CC(C)(C)NC(=O)c1cnn(-c2ccccc2)c1NC(=O)c1ccccc1
/,-0.6%,-9%,-13%,COc1ccc(OCCCC(=O)OC(C)C(=O)Nc2ccc(NC(C)=O)cc2)cc1 (stereo not given)
/,3.6%,-14%,-52%,COc1ccc(-n2c(C)c(C)c3c(NCCO)ncnc32)cc1
/,-0.7%,1%,-14%,CC(C)(C)CN1CCN(CC#Cc2ccccc2)CC1CCO (stereo not given)
1,-2.5%,-4%,0%,O=C(COC(=O)c1ccc[nH]c1=O)Nc1ccc2c(c1)OC(F)(F)O2
/,0.1%,2%,/,CCN(CC(=O)Nc1c(F)cccc1F)C(=O)/C=C/c1ccc(OCC#N)c(OC)c1
5,0.5%,-13%,1%,O=C(COC(=O)c1cccnc1Nc1ccccc1F)NCc1ccc2c(c1)OCO2
/,2.6%,15%,/,Cc1cccc(Nc2nc(N)nc(N)c2N=O)c1
/,?,-17%,-25%,Cc1nc(C(=O)NCCO)cc2c1[nH]c1ccccc12
-20,-3.6%,4%,-1%,Cc1cc(C)nc(-n2nc(C)cc2NC(=O)COC(=O)CCC(=O)c2cccs2)n1
-2,?,-14%,-3%,CCc1cccc(CC)c1NC(=O)c1ccccc1CCc1ccccc1
0,0.3%,-13%,-6%,CCCCNS(=O)(=O)c1ccc(NC(=O)Cc2ccccc2[N+](=O)[O-])cc1

# Screens: PubChem BioAssay, National Center for Advancing Translational Sciences (NCATS)
